From PubChem BioAssay
PMP22 txn: Cell-based coincidence reporter assay to measure PMP22 gene transcription in S16 Pmp22-F2sN cells - Primary screen; S16 Pmp22-F2sN Schwann cells (luciferase reporters placed in the Pmp22 gene), FLuc/NLuc coincidence luminescence, 24 h; Potency, µM (top dose mostly 57.5 µM), for inactives: top-dose activity change, negative = inhibition, usual class: inhibitors; 43,000 tested, 2% active; AID 1508649, 2021; active = clear falling dose curves in both reporters; inconclusive = both reporters move, but less clearly or upward; inactive = either reporter flat; the % is the NLuc reporter signal; note: % is set by controls: 0 for no effect and ±100 for the full control effect; some results filed as inactive show a strong effect at the top dose
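Luminescent read-out of sequential FLuc and NLuc signals from a reporter embedded in the Pmp22 3' UTR of S16 Schwann cells, taken after 24 h compound exposure at 37C; compounds reducing both signals score as inhibitors of expression.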
HTT promoter inh: Primary qHTS for Identification of Small Molecule Inhibitors of Huntingtin Promoter Activity | HEK293 HTT promoter firefly luciferase reporter (activity 0% = vehicle and -100% = no light), 24 h | Potency, µM (top dose mostly 57.5 µM), inactives show top-dose activity change, negative = inhibition, usual class: inhibitors | 48,000 tested, 0.93% active | AID 1508623, 2021; active = well fitted inhibition curve with a large enough effect; inconclusive = small, poorly fitted or top-dose-only effect; inactive = no such curve, though single readings can be large or run the other way; note: nearly all actives have a fitted effect of over 50% in size
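HEK293 cells carrying firefly luciferase reporters were seeded at 2,500 per well in Opti-MEM and cultured for 24 h. They were then treated with compounds at up to 57.5 uM final for 24 h at 37 degrees C before Dual-Glo luminescence readout.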
* marks the source's active call; other numbers are inactive results; ? = inconclusive; nt = not tested or not shown; [ ] = remark or other dose. Potency is the fitted concentration of half-maximal effect.

Values in the order – PMP22 txn, HTT promoter inh
Cc1c(C(=O)N(C)C)sc2c1c(=O)n(-c1ccccc1C(F)(F)F)c(=O)n2Cc1cccc(F)c1
  -10%, -10%
Cc1cc(C)c(S(=O)(=O)N2CCC(N3CCN(Cc4ccccc4)C(=O)C3=O)CC2)c(C)c1
  4%, -16%
CC(C)CCNC(=O)c1c[nH]c2ccc(S(=O)(=O)Nc3cccc(C(F)(F)F)c3)cc2c1=O
  -4%, ?
COc1ccc2c(CNCc3ccco3)c(C(=O)O)n(Cc3cccc(F)c3)c2c1
  9%, -17%
CCCCCC(=O)N1c2ccccc2C(C)(c2ccccc2)CC1(C)C (stereo not given)
  ?, -16%
COc1cccc(NC(=O)CN2C(=O)c3ccccc3Sc3ncccc32)c1
  -7%, 3%
CCn1c2ccccc2c2nnc(N3CCN(c4cc(C)ccc4C)CC3)nc21
  -14%, 4%
Cc1cc(C)n2nc(CNC(=O)c3cccc(N(C)C)c3)nc2n1
  -2%, 47%[activator]
CCOc1ccc(NC(=O)c2c(NCc3cccnc3)sc3c2CCCC3)cc1
  -37%, 41%[activator]
CCOc1ccc(NC(=O)c2cnn(-c3ccc(C)c(C)c3)c2C2CCN(C(=O)OC(C)(C)C)CC2)cc1
  ?, -4%
CC(C)(C)CC(=O)NCC(c1ccc2c(c1)OCO2)N1CCN(c2ccccc2)CC1 (stereo not given)
  ?, -22%
COC(=O)c1c(NC(=O)c2cc3nc(-c4ccc(Br)cc4)cc(C(F)(F)F)n3n2)sc2c1CCCC2
  3%, -7%
Cc1cccc(Cn2c(=O)n(Cc3ccc(C(=O)NC4CCN(Cc5ccccc5)CC4)cc3)c(=O)c3ccccc32)c1
  ?, -12%
O=C(OCc1ccco1)c1ccc2c(c1)N(Cc1ccc([N+](=O)[O-])cc1)C(=O)c1ccccc1S2
  -10%, -30%
CCCc1nn2c(=O)cc(COC(=O)c3ccccc3NC(=O)COc3ccccc3)nc2s1
  ?, -13%
CC(C)NC(=O)c1ccc(NC(=O)N2CCCCc3ccccc32)cc1
  48%, ?
COc1ccc(CCN2C(=O)c3[nH]nc(-c4ccccc4O)c3C2c2ccc(OC)c(OC)c2)cc1 (stereo not given)
  ?, ?
COc1ccc(NC(=O)c2cc(S(=O)(=O)N3CCCCC3)cn2C)cc1Cl
  -11%, -17%
COc1cccc(CNC(=O)Cn2ccc3cc(S(=O)(=O)N4CCCC4)ccc32)c1
  -9%, ?
O=C(Nc1ccc2oc(-c3cccnc3)nc2c1)c1ccccc1F
  7%, -27%[11.5 µM]
COCCNC(=O)Cn1nc(C)c2c(C)n(-c3ccc(C)cc3)nc2c1=O
  0%, -13%
Cc1ccc(C)c(N2CCN(CCCNC(=O)c3cnn(-c4ccccc4Cl)c3C3CCN(C(=O)OC(C)(C)C)CC3)CC2)c1
  ?, ?
COc1ccccc1NC(=O)CSc1ncc2c(n1)-c1cc(Cl)ccc1N(Cc1ccccc1)S2(=O)=O
  -22%, -26%
O=C(CCCn1c(=O)c2cccn2c2ccccc21)Nc1cccc(Cl)c1
  -5%, -26%
CNC(=O)c1ccc(Nc2nnc(-c3ccc(C)c(S(=O)(=O)N4CCOCC4)c3)c3ccccc23)cc1
  -47%, 2%
Cc1ccc(NC(=O)CSCc2cnn(-c3ccccc3)c2-n2cccc2)c(Cl)c1
  2%, ?
Cc1cc2nc(NC(=O)c3ccc(S(=O)(=O)N4CCOCC4)cc3)sc2cc1C
  -13%, 3%
Cc1ccc(CN2CCC(CNC(=O)Nc3c(C)cccc3C)C2)cc1 (stereo not given)
  ?, -16%
CCOC(=O)c1ccc(NC(=O)C(C)Sc2nc(=O)cc(N)n2CCc2ccccc2)cc1 (stereo not given)
  -7%, -11%
COc1ccccc1C(=O)N(Cc1nc(-c2cccc(C)c2)no1)C(C)C
  ?, -27%

Molecules from the list above that have two or more sulfur atoms (2):
Values in the order – PMP22 txn, HTT promoter inh
COc1ccccc1NC(=O)CSc1ncc2c(n1)-c1cc(Cl)ccc1N(Cc1ccccc1)S2(=O)=O
  -22%, -26%
Cc1cc2nc(NC(=O)c3ccc(S(=O)(=O)N4CCOCC4)cc3)sc2cc1C
  -13%, 3%

Five entries from above, with bars between the fields.
Structure | PMP22 txn | HTT promoter inh
O=C(Nc1ccc2oc(-c3cccnc3)nc2c1)c1ccccc1F | 7% | -27%[11.5 µM]
CC(C)(C)CC(=O)NCC(c1ccc2c(c1)OCO2)N1CCN(c2ccccc2)CC1 (stereo not given) | ? | -22%
COc1ccccc1NC(=O)CSc1ncc2c(n1)-c1cc(Cl)ccc1N(Cc1ccccc1)S2(=O)=O | -22% | -26%
CNC(=O)c1ccc(Nc2nnc(-c3ccc(C)c(S(=O)(=O)N4CCOCC4)c3)c3ccccc23)cc1 | -47% | 2%
COc1ccc(NC(=O)c2cc(S(=O)(=O)N3CCCCC3)cn2C)cc1Cl | -11% | -17%

The listing picks up; the 3 compounds before the break are reprinted first.
Values in the order – PMP22 txn, HTT promoter inh
Cc1ccc(CN2CCC(CNC(=O)Nc3c(C)cccc3C)C2)cc1 (stereo not given)
  ?, -16%
CCOC(=O)c1ccc(NC(=O)C(C)Sc2nc(=O)cc(N)n2CCc2ccccc2)cc1 (stereo not given)
  -7%, -11%
COc1ccccc1C(=O)N(Cc1nc(-c2cccc(C)c2)no1)C(C)C
  ?, -27%
Cc1ccc2c(=O)cc(C(=O)Nc3c(C(=O)c4ccc(F)cc4)oc4ccccc34)oc2c1C
  -3%, 3%
Cc1ccc(NC(=O)C2CCN(S(=O)(=O)c3ccc4c(c3)CCCC(=O)N4)CC2)c(Br)c1
  -29%, -28%
COc1ccc(/C=C/c2nc(C#N)c(NCCc3ccccc3)o2)cc1OC
  -23%, -10%
Cc1c(NC(=O)C(C)(C)Oc2ccc(Cl)cc2)cccc1-c1nc2ccccc2o1
  -8%, ?
CCc1cccc(-n2nnc(-c3nsc(NC(=O)c4cccc(OC)c4)n3)c2C)c1
  ?, ?
CC1CCCCN1CCCOC(=O)c1ccc(OC2CCCCC2)cc1 (stereo not given)
  nt, -7%
COc1ccc(S(=O)(=O)NCCc2csc3nc(-c4ccc(OC)c(OC)c4)nn23)cc1C
  0%, 0%
COc1ccc2cc(CNc3ccccc3)c(=O)n(CC(=O)Nc3ccc(C(C)=O)cc3)c2c1
  -19%, -37%
Cc1noc(-c2ccc(N3CCCCC3)c([N+](=O)[O-])c2)n1
  -43%, 39%[activator]
COc1ccc(CC(=O)Nc2nc3c(s2)CC(C(C)(C)C)CC3)cc1 (stereo not given)
  ?, 9%
Cn1c(=O)c2sccc2n2c(CCC(=O)NCc3ccc(F)cc3)nnc12
  2%, -2%
COc1ccc(C(=O)Nc2nnc(S(=O)(=O)N3CCN(c4ccc(C)cc4)CC3)s2)cc1
  20%, -6%
CCc1c(C)nc2nncn2c1Nc1ccc(Cl)cc1
  ?, ?
CCOC(=O)c1c(C)[nH]c(C)c1S(=O)(=O)N1CCC(C(=O)N2CCN(c3cccc(C)c3)C(C)C2)CC1 (stereo not given)
  ?, ?
O=C(CSc1c2c(nc3cc(Cl)ccc13)CCCC2)N1CCN(c2ccccc2F)CC1
  ?, ?
COc1ccc(Cl)cc1NC(=O)C1CCN(S(=O)(=O)c2ccc3c(c2)CC(C)N3C(C)=O)CC1 (stereo not given)
  ?, ?
Cc1ccc(N2CCN(C(=O)c3c(C)oc4ncn(CC(C)C)c(=O)c34)CC2)c(C)c1
  -22%, -5%
CCOc1cc2c(cc1OCC)C(CC(=O)OC)N(C(=O)Nc1cc(C)cc(C)c1)CC2 (stereo not given)
  ?, -3%
CCOC(=O)c1c(NC(=O)CS(=O)(=O)c2ccc(C)cc2)sc2c1CCCCC2
  -1%, ?
COC(=O)c1ccc(NC(=O)CN2CCN(S(=O)(=O)c3ccc(Br)cc3)CC2)cc1
  23%, -27%
COC(=O)c1ccccc1NC(=O)N1CCC(N2CCN(Cc3ccc(F)cc3)C(=O)C2=O)CC1
  -12%, -1%
CC(=O)c1ccc(NC(=O)c2cn(C)c(=O)c3ccccc23)cc1
  -22%, 9%
CCN(CC)S(=O)(=O)c1ccc2c(c1)N(CC(=O)NCC(C)c1ccccc1)C(=O)CO2 (stereo not given)
  -12%, -11%
CCCCOc1ccc(C2c3c(oc4ccc(C)cc4c3=O)C(=O)N2CCCN(C)C)cc1OCC (stereo not given)
  -6%, 2%
COc1ccc(CNC(=O)C(C(C)C)N2Cc3ccccc3C2=O)cc1 (stereo not given)
  ?, ?
CCn1cc(C(=O)N2CCN(c3cc(C)ccc3C)CC2)c(=O)c2cc(S(=O)(=O)N3CCOCC3)ccc21
  -15%, 3%
COc1ccc(Nc2c(-c3ccsc3)nc3nc(C)cc(C)n23)cc1
  1%, -12%
Cc1cccc(NC(=O)Cn2cc(S(=O)(=O)c3ccc(F)cc3)c(=O)c3cc4c(cc32)OCO4)c1
  -1%, ?
Cc1ccc(CN2CCCn3nc(C(=O)NCc4cc(C)ccc4C)cc3C2=O)cc1
  7%, 28µM*

Arranged by molar mass (lowest first): some entries from above.
Values in the order – PMP22 txn, HTT promoter inh
COc1ccc(CC(=O)Nc2nc3c(s2)CC(C(C)(C)C)CC3)cc1 (stereo not given)
  ?, 9%
CCOC(=O)c1c(NC(=O)CS(=O)(=O)c2ccc(C)cc2)sc2c1CCCCC2
  -1%, ?
CCn1cc(C(=O)N2CCN(c3cc(C)ccc3C)CC2)c(=O)c2cc(S(=O)(=O)N3CCOCC3)ccc21
  -15%, 3%
